SARS PLP yeast: blocks SARS-CoV papain-like protease in a yeast assay | S. cerevisiae expressing SARS-CoV PLpro, growth rescue; control for the full effect not named in the record | Potency, µM (series often up to 32.9 µM), inactives show at the top dose activity, positive = growth rescue | 0.19% of 330,000 active | AID 485353; further: 0% is about no effect; nearly all actives have a fitted effect of over 55% in size; growth read by luminescence after 48 h
NS1 inh: blocks influenza NS1 protein function; S. cerevisiae slowed by influenza A NS1, growth recovery by OD600; Potency, µM (titrated, usually from 46.1 µM), for the others: top-dose activity, positive = more growth; 0.4% of 270,000 active; further: actives are rising curves; nearly all actives have a fitted effect of over 50% in size
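Recovery from NS1-induced slow growth read by OD600 in budding yeast switched to galactose assay medium (pH 6.0, -URA) at 1:100 dilution. Compound 23 nl per well; the matching strain lacking NS1 serves as control.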
Cruzain inh Det: inhibitors of Trypanosoma cruzi cruzain with detergent; P25779; purified cruzain, Z-FR-AMC fluorescence, 0.01% Triton; Potency, µM, for the others: max response, negative = inhibition, most hits filed as inhibitors; 0.43% of 200,000 active; active means well fitted curve in the direction sought with a large enough effect; inconclusive means small, poorly fitted or top-dose-only effect, or another doubt; inactive means no such curve, though single readings can be large; an effect the other way counts as inactive or inconclusive;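 further: plate controls were neutral wells for no effect and buffer without enzyme for full effect; nearly all actives have a fitted effect of over 40% in size; top concentration of the series not given in the record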
Target sequence (P25779 123-467 limits assumed): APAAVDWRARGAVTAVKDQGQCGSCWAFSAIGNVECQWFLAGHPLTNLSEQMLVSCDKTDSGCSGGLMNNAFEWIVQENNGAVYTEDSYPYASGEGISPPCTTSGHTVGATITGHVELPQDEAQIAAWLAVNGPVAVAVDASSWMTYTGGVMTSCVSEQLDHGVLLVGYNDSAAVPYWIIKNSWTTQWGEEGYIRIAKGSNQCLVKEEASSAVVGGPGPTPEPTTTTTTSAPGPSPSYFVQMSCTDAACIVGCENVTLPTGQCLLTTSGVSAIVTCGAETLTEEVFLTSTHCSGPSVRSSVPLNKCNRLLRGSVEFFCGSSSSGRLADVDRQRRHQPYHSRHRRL
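Z-FR-AMC hydrolysis (2 uM substrate) by cruzain (1.5 nM) monitored kinetically at ex 360/em 450 nm after 15 min room-temperature compound exposure; 0.01% Triton X-100, pH 5.5, 5 mM DTT.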
LASV entry inh: Lassa virus entry inhibition | AID 540256 | Potency, µM (highest dose often 37.9 µM), without a hit: at the top dose activity change, negative = inhibition, usual class: inhibitors | Lassa virus pseudotype entry inhibition, cell reporter; control for the full effect not named in the record | 1.2% of 300,000 active; active means well fitted inhibition curve with a large enough effect; inconclusive means small, poorly fitted or top-dose-only effect, or effect the other way; inactive means flat fitted curve, though single readings scatter; tested in HEK293 cells; further: on the % scale 0 is the no-effect control and ±100 the full control effect; nearly all actives have a fitted effect of over 50% in size; luciferase read-out
2A StopGo: lowers the luciferase signal of an FMDV 2A StopGo reporter; human cells with a luciferase reporter of 2A StopGo recoding; control for the full effect not named in the record; Potency, µM (series often up to 57.9 µM), inactives show at the top dose signal change, negative = less light; 1.2% of 410,000 active; active = well fitted falling curve with a large enough effect; inconclusive = small, poorly fitted or top-dose-only effect; inactive = no such curve, though single readings can be large or run the other way; tested in HEK293T cells; further: on the % scale 0 is the no-effect control and ±100 the full control effect; nearly all actives have a fitted effect of over 45% in size; luciferase light after 4 h
RE007 growth inh: less growth of the S. pombe RE007 Vpr strain; S. pombe RE007 Vpr strain, BacTiter-Glo ATP luminescence, 24 h; control for the full effect not named in the record; 0.21% of 360,000 active; Potency, µM (doses to about 92.2 µM), for inactives: top-dose activity change, negative = less growth; AID 651644; active = well fitted falling curve with a large enough effect; inconclusive = small, poorly fitted or top-dose-only effect; inactive = no such curve, though single readings can be large or run the other way;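 further: on the % scale 0 is the no-effect control and ±100 the full control effect; nearly all actives have a fitted effect of over 50% in size; the assay follows cell death caused by Vpr and the record does not say whether a fall means rescue or toxicity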
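Fission yeast RE007 carrying one integrated HIV-1 vpr copy, seeded at OD 0.01 in PMG+AL medium with 23 nL pinned compound. Grown 24 h at 30 degrees; viability read by BacTiter-Glo luminescence after 5 min.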
Cruzain inh noDet: blocks cruzain activity in detergent-free assay | 2.3% of 200,000 active | purified cruzain, Z-FR-AMC fluorescence, no detergent | AID 1476 | Potency, µM, for inactives: max response, negative = inhibition, hits mostly inhibitors | P25779; active means well fitted curve in the direction sought with a large enough effect; inconclusive means small, poorly fitted or top-dose-only effect, or another doubt; inactive means no such curve, though single readings can be large; an effect the other way counts as inactive or inconclusive;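 further: plate controls were enzyme without inhibitor for no effect and buffer without enzyme for full effect; nearly all actives have a fitted effect of over 40% in size; top concentration of the series not given in the record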
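Purified cruzain at 1.5 nM, pre-incubated 15 min with compound at room temperature in 100 mM sodium acetate pH 5.5, 5 mM DTT, 0.00005% Triton X-100. Reaction started with 2 uM Z-FR-AMC; AMC fluorescence increase over 60 s gives rate.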
Marburg entry inh: Marburg virus entry inhibition; Marburg virus pseudotyped entry inhibition, cell reporter; control for the full effect not named in the record; about a third of the inactives were read at about 46 µM; 1.8% of 300,000 active; Potency, µM (titrated, usually from 37.8 µM), for inactives: at the top dose activity change, negative = inhibition, most hits filed as inhibitors; active = well fitted inhibition curve with a large enough effect; inconclusive = small, poorly fitted or top-dose-only effect, or effect the other way; inactive = flat fitted curve, though single readings scatter; tested in HEK293 cells; about a fifth of its hits are not listed in these tables; further: on the % scale 0 is the no-effect control and ±100 the full control effect; luciferase read-out
Numbers without * were called inactive; ? = inconclusive; nt = no result given; & = joins results of further samples; [ ] = remark or other dose. Unless noted, the call rests on the fitted dose curve; in most records, active means well fitted rising curve with a large enough effect; inconclusive means small, poorly fitted or top-dose-only effect; inactive means no such curve, though single readings can be large or run the other way. Potency means the concentration at half of the fitted maximal effect.

SMILES	SARS PLP yeast	NS1 inh	Cruzain inh Det	LASV entry inh	2A StopGo	RE007 growth inh	Cruzain inh noDet	Marburg entry inh
CC1CN(Cc2csc(-c3ccc(Cl)cc3)n2)CC(C)O1 (stereo not given)	-5%	nt	nt	-10%[46.1 µM]	-16%	-19%	nt	?
CCC(=O)NC(c1cccs1)c1cc(Cl)c2cccnc2c1O (stereo not given)	1%	5%	nt	nt	-15%	-11%	nt	nt
Cc1cc(C)c2nc(N3CCCC(C(=O)NCCCN4CCOCC4)C3)sc2c1 (stereo not given)	-2%	-4%	4.9%	?	22%	10%	8%	?
CC(NC(=O)C(=O)NN=C1CCC(C(C)(C)C)CC1)c1ccccc1 (stereo not given)	15%	-5%	0.1%	8%	-10%	13%	15%	4%
CC1c2ccsc2CCN1C(=O)NC(=O)c1ccc(Cl)cc1 (stereo not given)	0%	2%	nt	?	4%	-12%	nt	?
Cc1ccc(C(=O)N/N=C\C=C\c2ccccc2[N+](=O)[O-])cn1	1%	10%	nt	nt	-7%	-1%	nt	nt
CC1(C)CC(=O)c2cc(C(=O)O)c(=O)n(-c3ccccc3)c2C1	15%	3%	-1.1%	-2%	4%	7%	-3%	?
CC(=O)[C@H]1[C@H](CCc2ccccc2)NC(=O)N(Cc2ccccc2)[C@@H]1C	0%	-12%	nt	nt	?	40%	nt	19%[14.2 µM]
OCC(CO)(CO)NCC(O)CN1c2ccccc2Sc2ccccc21 (stereo not given)	0%	-1%	nt	nt	0%	-9%	nt	1%
COc1ccccc1/C=N/NC(=O)c1ccc(-c2ccccc2)cc1	-43%	-1%	-4.3%	-6%	-8%	-2%	?	1%
O=C(CNC(=S)N(CCCN1CCOCC1)Cc1cccs1)NCCCN1CCOCC1	0%	10%	0.3%	?	-4%	7%	3%	-20%
CCCc1nc2cc3c(cc2[nH]1)n(C)c(=O)n3C	-2%	4%	nt	?	25%	-11%	nt	-23%
O=C(Nc1cccc2ccccc12)N(c1ccccc1)c1ccccc1	nt	nt	nt	12%	-28%	-3%	nt	?
CCOC(=O)CN1C(=O)C(O)(c2c(C)[nH]c3ccccc23)c2ccccc21 (stereo not given)	2%	0%	-6.8%	6%	8%	?	-10%	23%&6%
C=CCn1c(O)c(C=NCCCOc2ccc(CC)cc2)c(=O)[nH]c1=S	-3%	6%[9.22 µM]	-24%	17%	10%	18%	5%	11%
COc1ccc2nc(C)cc(SCC(=O)N/N=C/c3c(OC)ccc4ccccc34)c2c1	?	22%	-27%	-3%	?	-4%	-21%	?
O=C(COC(=O)c1oc2ccccc2c1CSc1ccc(Cl)cc1)NC1CCCC1	-9%	-4%	-7.3%	4%	-15%	13%	-28%	-28%
COc1cc(C2CC(=O)Nc3ccc4ccccc4c32)ccc1OC(=O)C(C)C (stereo not given)	nt	nt	-15%	-4%[46.1 µM]	-19%	nt	9%	-12%[46.1 µM]
COc1ccccc1CNC(=O)Cn1c(=O)nc(-c2ccccc2)c2ccccc21	nt	nt	-2.0%	?	5%	nt	-4%	nt
CCOC(=O)c1cnn(CCOC(=O)c2cccs2)c1NC(=O)c1cccs1	3%	-4%	1.8%	1%	3%	-6%	-9%	-3%
COc1ccc(C)cc1S(=O)(=O)n1nc(C)cc1C	-2%	1%	nt	-8%	1%	22%	nt	-12%[14.2 µM]
NS(=O)(=O)c1ccc2nc(NC(=O)c3ccc(Br)o3)sc2c1	7%	nt	nt	3%	52%[activator]	5%	nt	8%
Cc1ccc(NC(=O)CCc2nc(-c3cccs3)no2)c(Br)c1	-1%	-4%	nt	nt	-13%	-13%	nt	nt
C=CCSc1ncccc1C(=O)O	-3%	-8%	11%	10%	3%	16%	1%	-3%
N#C/C(=C\Nc1ccc2cn[nH]c2c1)c1nc(-c2ccc(Cl)cc2)cs1	1%	nt	nt	-2%	-24%	18%	nt	?

Entries shown so far that have a COOH group (2):
SMILES	SARS PLP yeast	NS1 inh	Cruzain inh Det	LASV entry inh	2A StopGo	RE007 growth inh	Cruzain inh noDet	Marburg entry inh
CC1(C)CC(=O)c2cc(C(=O)O)c(=O)n(-c3ccccc3)c2C1	15%	3%	-1.1%	-2%	4%	7%	-3%	?
C=CCSc1ncccc1C(=O)O	-3%	-8%	11%	10%	3%	16%	1%	-3%

New compounds follow:
SMILES	SARS PLP yeast	NS1 inh	Cruzain inh Det	LASV entry inh	2A StopGo	RE007 growth inh	Cruzain inh noDet	Marburg entry inh
COC(=O)c1ccc(NCC(=O)Nc2cc(C)cc(C)c2)cc1	1%	0%	nt	nt	-5%	1%	nt	nt
CNS(=O)(=O)c1cccc(C(=O)NNC(=O)CN(C)S(=O)(=O)c2ccc(Cl)cc2)c1	-2%	nt	nt	?	-3%	-11%	nt	?
CC(=O)c1ccc(NC(=O)CC(NCCC2=CCCCC2)C(=O)O)cc1 (stereo not given)	-5%	12%	-3.5%	16%	0%	0%	-6%	?
COc1ccc(C)cc1NC(=O)C(=O)NCC(c1cccnc1)N1CCN(c2ccccc2F)CC1 (stereo not given)	nt	nt	-7.0%	-16%[46.1 µM]	?	nt	14%	nt
Cc1cccc(NC(=O)c2nc[nH]c2C(=O)N[C@@H](Cc2ccccc2)C(=O)OCc2ccccc2)c1	4%	?	nt	nt	-21%	7%	nt	nt
CCn1nnnc1SCC(=O)Nc1sc(C)c(C)c1C#N	0%	8%	3.2%	5%	-16%	1%	-2%	-5%
NS(=O)(=O)c1ccc(NC(=O)COC(=O)COc2ccc3ccccc3c2)cc1	19%	nt	nt	0%	-14%	11%	nt	-1%[46.1 µM]
O=C(NC1c2ccccc2Oc2ccccc21)c1ccc([N+](=O)[O-])cc1	nt	nt	nt	4%[46.1 µM]	?	-10%	nt	?
COc1ccc(S(=O)(=O)N(CC(=O)N/N=C/c2ccc(C(=O)O)cc2)Cc2ccccc2)cc1OC	2%	24%	nt	4%[46.1 µM]	-8%	15%	nt	1%[46.1 µM]
Cc1ccccc1Nc1c(-c2cccnc2)nc2cccc(C)n12	3%	-6%	-3.4%	-2%[46.1 µM]	?	2%	-10%	-33%&-33%[46.1 µM]
Cn1c(=O)c2c(ncn2CC(COCc2ccc(Cl)cc2)OCc2ccc(Cl)cc2)n(C)c1=O (stereo not given)	-18%	0%	-1.8%	?	?	26%	?	7.9µM*
Cc1cccc(C)c1Nc1c(-c2ccc(Cl)s2)nc2ncccn12	nt	nt	-9.4%	-5%[46.1 µM]	-9%	nt	-4%	?
CC(C)(C)c1ccc(-c2noc(CCC(=O)N3CCOCC3)n2)cc1	-2%	nt	nt	?	-31%	-7%	nt	?
O=c1[nH]c2cc3c(cc2cc1CN(CC1CCCO1)S(=O)(=O)c1ccc(Cl)cc1)OCCO3 (stereo not given)	5%	-3%	4.1%	-21%	31%[activator]	1%	-1%	-7%&-1%
Cc1ccccc1OCC(=O)NNC(=O)c1cc(S(=O)(=O)N2CCOCC2)ccc1N1CCCC1	2%	nt	nt	-10%	-5%	14%	nt	14%
CC(=O)Nc1cccc(C(=O)OCC(=O)c2ccccc2Cl)c1	-2%	nt	nt	21%	-36%	38%	nt	12%[46.1 µM]
CCOC(=O)C(NC(=O)NCc1ccccc1OC)(OCC)C(F)(F)F (stereo not given)	26%	8%	-1.4%	-2%	-16%	-8%	9%	2%
CCOC(=O)N1CCC(N2CC34C=CC(O3)C(C(=O)O)C4C2=O)CC1 (stereo not given)	11%	6%	3.0%	nt	2%	14%	-3%	-2%
CC(=O)Nc1ccc2ccccc2c1[N+](=O)[O-]	nt	nt	nt	1%[46.1 µM]	5%	-10%	nt	10%[46.1 µM]
CC(=O)Nc1cccc2c1C(=O)NC2=O	12%	-57%	1.0%	8%	-1%	17%	-7%	25%
COC(=O)c1ccc(NC(=O)C2CCCN(S(C)(=O)=O)C2)cc1 (stereo not given)	-5%	nt	nt	?	-6%	26%	nt	6%
CSc1sc(C(=O)NCC2CC2)c(-c2cccs2)c1C#N	-2%	-7%	nt	-19%	-18%	-9%	nt	8%[14.2 µM]
COc1cc(CNc2ccc3[nH]c(=O)[nH]c3c2)ccc1OCc1ccccc1Cl	0%	15%	nt	?	-4%	-19%	nt	?
Nc1cc(=O)nc(SCC(=O)NCc2ccccc2)n1CCc1ccccc1	-2%	4%	1.9%	1%	-5%	19%	5%	-1%
Cn1c(=O)[nH]c(=O)c2c1nc(N1CCN(CCO)CC1)n2CCSc1nc2ccccc2s1	3%	-7%	1.4%	nt	2%	9%	?	-3%

Looked up above.
O=c1[nH]c2cc3c(cc2cc1CN(CC1CCCO1)S(=O)(=O)c1ccc(Cl)cc1)OCCO3 (stereo not given) @ LASV entry inh = -21%
CNS(=O)(=O)c1cccc(C(=O)NNC(=O)CN(C)S(=O)(=O)c2ccc(Cl)cc2)c1 @ SARS PLP yeast = -2%
CCOC(=O)C(NC(=O)NCc1ccccc1OC)(OCC)C(F)(F)F (stereo not given) @ RE007 growth inh = -8%
COc1cc(CNc2ccc3[nH]c(=O)[nH]c3c2)ccc1OCc1ccccc1Cl @ SARS PLP yeast = 0%
CSc1sc(C(=O)NCC2CC2)c(-c2cccs2)c1C#N @ RE007 growth inh = -9%
Cn1c(=O)c2c(ncn2CC(COCc2ccc(Cl)cc2)OCc2ccc(Cl)cc2)n(C)c1=O (stereo not given) @ Cruzain inh Det = -1.8%

Whole records, looked up by structure. Order of values: SARS PLP yeast	NS1 inh	Cruzain inh Det	LASV entry inh	2A StopGo	RE007 growth inh	Cruzain inh noDet	Marburg entry inh
`CC(=O)Nc1cccc2c1C(=O)NC2=O` across the screens: 12%	-57%	1.0%	8%	-1%	17%	-7%	25%
`COc1cc(CNc2ccc3[nH]c(=O)[nH]c3c2)ccc1OCc1ccccc1Cl` across the screens: 0%	15%	nt	?	-4%	-19%	nt	?

High-throughput results: PubChem BioAssay, National Center for Advancing Translational Sciences (NCATS)
